# Assay outcomes: PubChem BioAssay, National Center for Advancing Translational Sciences (NCATS)
# LASV entry inh = qHTS for Inhibitors of binding or entry into cells for Lassa Virus | Lassa virus pseudotype entry inhibition, cell reporter; control for the full effect not named in the record | Potency, µM (highest dose often 37.9 µM), for the others: top-dose activity change, negative = inhibition, actives largely listed as inhibitors | hit rate 1.2% among 300,000; active means well fitted inhibition curve with a large enough effect; inconclusive means small, poorly fitted or top-dose-only effect, or effect the other way; inactive means flat fitted curve, though single readings scatter; tested in HEK293 cells; note: % is set by controls: 0 for no effect and ±100 for the full control effect; nearly all actives have a fitted effect of over 50% in size; luciferase read-out
# NS1 function inh = qHTS Assay for Inhibitors of Influenza NS1 Protein Function; S. cerevisiae slowed by influenza A NS1, growth recovery by OD600; Potency, µM (series often up to 46.1 µM), without a hit: at the top dose activity, positive = more growth; hit rate 0.4% among 270,000; AID 2326, 2010; active means well fitted rising curve with a large enough effect; inconclusive means small, poorly fitted or top-dose-only effect; inactive means no such curve, though single readings can be large or run the other way; note: nearly all actives have a fitted effect of over 50% in size
#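 In this qHTS, NS1 from influenza A is expressed in budding yeast, where it slows growth. Cells are switched from glucose to 2% galactose medium (pH 6.0, -URA), treated with compound, and growth recovery is read at OD600.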
# Cruzain Triton = qHTS Assay for Promiscuous and Specific Inhibitors of Cruzain (with detergent); Cruzipain (Trypanosoma cruzi), P25779; purified cruzain, Z-FR-AMC fluorescence, 0.01% Triton; Potency, µM, for the others: max response, negative = inhibition, usual class: inhibitors; hit rate 0.43% among 200,000; AID 1478, 2009;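 note: plate controls were neutral wells for no effect and buffer without enzyme for full effect; nearly all actives have a fitted effect of over 40% in size; top concentration of the series not given in the record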
# Target sequence (P25779 123-467 limits assumed): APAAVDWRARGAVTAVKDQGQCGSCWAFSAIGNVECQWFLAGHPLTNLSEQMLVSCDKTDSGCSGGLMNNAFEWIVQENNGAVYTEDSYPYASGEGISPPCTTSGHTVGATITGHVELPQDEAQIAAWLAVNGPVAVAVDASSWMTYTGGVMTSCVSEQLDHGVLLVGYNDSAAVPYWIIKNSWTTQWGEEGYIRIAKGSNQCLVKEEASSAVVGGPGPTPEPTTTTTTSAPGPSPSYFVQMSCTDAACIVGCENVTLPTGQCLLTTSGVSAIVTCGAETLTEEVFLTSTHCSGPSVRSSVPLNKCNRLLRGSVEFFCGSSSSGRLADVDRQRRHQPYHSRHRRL
#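 Detergent-containing arm of a paired screen for aggregation-based inhibition: 0.01% Triton X-100 present. Cruzain at 1.5 nM cleaved 2 uM Z-FR-AMC at pH 5.5 with 5 mM DTT; AMC fluorescence gain over 60 s measured activity.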
# RE007 growth inh = qHTS Assay for Inhibitors of the HIV-1 protein Vpr. S. pombe RE007 Vpr strain, BacTiter-Glo ATP luminescence, 24 h; control for the full effect not named in the record. Potency, µM (top dose mostly 92.2 µM), without a hit: top-dose activity change, negative = less growth. hit rate 0.21% among 360,000; active = well fitted falling curve with a large enough effect; inconclusive = small, poorly fitted or top-dose-only effect; inactive = no such curve, though single readings can be large or run the other way;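 note: % is set by controls: 0 for no effect and ±100 for the full control effect; nearly all actives have a fitted effect of over 50% in size; the assay follows cell death caused by Vpr and the record does not say whether a fall means rescue or toxicity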
#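 Fission yeast strain RE007, carrying one chromosomally integrated HIV-1 vpr copy, was seeded at OD 0.01 in PMG+AL medium with 23 nL pinned compound. After 24 h at 30 °C and 99% humidity, viability was read by BacTiter-Glo luminescence.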
# Marburg entry inh = qHTS for inhibitors of binding or entry into cells for Marburg Virus | Potency, µM (titrated, usually from 37.8 µM), for inactives: top-dose activity change, negative = inhibition, actives largely listed as inhibitors | hit rate 1.8% among 300,000 | Marburg virus pseudotyped entry inhibition, cell reporter; control for the full effect not named in the record; about a third of the inactives were read at about 46 µM; active = well fitted inhibition curve with a large enough effect; inconclusive = small, poorly fitted or top-dose-only effect, or effect the other way; inactive = flat fitted curve, though single readings scatter; tested in HEK293 cells; about a fifth of its hits are not listed in these tables; note: % is set by controls: 0 for no effect and ±100 for the full control effect; luciferase read-out
# SARS PLP yeast = qHTS of Yeast-based Assay for SARS-CoV PLP; S. cerevisiae expressing SARS-CoV PLpro, growth rescue; control for the full effect not named in the record; Potency, µM (highest dose often 32.9 µM), without a hit: at the top dose activity, positive = growth rescue; hit rate 0.19% among 330,000; AID 485353, 2010; active means well fitted rising curve with a large enough effect; inconclusive means small, poorly fitted or top-dose-only effect; inactive means no such curve, though single readings can be large or run the other way; note: 0% is about no effect; nearly all actives have a fitted effect of over 55% in size; growth read by luminescence after 48 h
# StopGo reporter = High Throughput Screening for Foot and Mouth Disease Virus Antivirals; human cells with a luciferase reporter of 2A StopGo recoding; control for the full effect not named in the record; Potency, µM (doses to about 57.9 µM), inactives show at the highest dose signal change, negative = less light; hit rate 1.2% among 410,000; AID 1159524, 2015; active = well fitted falling curve with a large enough effect; inconclusive = small, poorly fitted or top-dose-only effect; inactive = no such curve, though single readings can be large or run the other way; tested in HEK293T cells; note: % is set by controls: 0 for no effect and ±100 for the full control effect; nearly all actives have a fitted effect of over 45% in size; luciferase light after 4 h
# Cruzain noTriton = qHTS Assay for Promiscuous and Specific Inhibitors of Cruzain (without detergent). Cruzipain (Trypanosoma cruzi), P25779. purified cruzain, Z-FR-AMC fluorescence, no detergent. Potency, µM, without a hit: max response, negative = inhibition, hits mostly inhibitors. hit rate 2.3% among 200,000. AID 1476, 2009;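 note: plate controls were enzyme without inhibitor for no effect and buffer without enzyme for full effect; nearly all actives have a fitted effect of over 40% in size; top concentration of the series not given in the record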
#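 Detergent-free condition (0.00005% Triton X-100) in acetate buffer pH 5.5 with DTT. 1.5 nM enzyme and compound were pre-mixed 15 min, then 2 uM Z-FR-AMC substrate added; reaction progress from fluorescence change between first and third reads (60 s).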
# * hit, by the source's call; u = inconclusive; x = not tested or not shown; & = joins results of further samples; [ ] = dose if it differs, or a comment. Unless noted, calls come from the whole dose curve; as a rule, active = well fitted curve in the direction sought with a large enough effect; inconclusive = small, poorly fitted or top-dose-only effect, or another doubt; inactive = no such curve, though single readings can be large; an effect the other way counts as inactive or inconclusive. Potency is the fitted concentration of half-maximal effect. The order is random; overall some 4.7% were active at least once.
SMILES,LASV entry inh,NS1 function inh,Cruzain Triton,RE007 growth inh,Marburg entry inh,SARS PLP yeast,StopGo reporter,Cruzain noTriton
CC(=O)c1c(N2CCN(C(=O)C3CCCO3)CC2)nc(=S)n(-c2ccccc2)c1C (centres undefined),2.4%,3.1%,2.2%,-0.4%,12.9%,u,19.0%,4.0%
Cc1cccc(Nc2nc3c(S(=O)(=O)c4ccccc4)nnn3c3ccccc23)c1,-1.0%,3.0%,-2.5%,x,6.7%,-5.4%,-27.1%,25.1µM*
CCc1ccc(/C=N/NC(=O)c2cc(-c3ccncc3)nc3ccccc23)s1,u,12.3%,-9.8%,0.2%,u,17.2%,-15.8%,u
COCCn1c(C)cc(C(=O)CSc2nc(C)c(C)c(C)n2)c1C,-4.7%,x,x,-5.2%,12.8%[46.1 µM],0.7%,-24.3%,x
CC(=O)c1ccc(CCCC(=O)O)cc1,7.1%,-11.1%,1.1%,1.0%,9.8%,0.3%,8.5%,-7.7%
N#CCCN(NC(=O)OCc1ccccc1)C(=O)OCc1ccccc1,-7.1%,x,x,-6.6%,1.6%,x,-2.3%,x
CCc1ccc(NC(=S)NC2CCN(Cc3ccccc3)CC2)cc1,u,5.4%,5.3%,10.4%,u,-8.7%,-25.1%,-4.3%
Cc1cc(C(F)(F)F)nn1CC(=O)NCc1cccs1,x,-3.1%,x,7.0%,x,-0.3%,-1.4%,x
COc1ccccc1-n1c(SCC(N)=O)nc2c(c1=O)SCC2,x,8.3%,-4.0%,17.3%,x,-3.0%,-8.6%,-5.1%
Cn1c(CCN2CCN(c3ccccn3)CC2)nc2cc(NC(=O)COc3ccccc3)ccc21,x,-39.4%,x,u,x,-0.2%,u,x
CC(=O)Nc1ccc(S(=O)(=O)NC2(C(F)(F)F)NC(=O)N(c3ccc(C)cc3)C2=O)cc1 (centres undefined),14.1%,22.9%,x,4.3%,23.3%,-7.1%,-17.0%&-23.6%,x
Nc1nc2c(Cl)ccc(Cl)c2s1,-8.5%,x,x,-6.8%,-2.9%[46.1 µM],2.1%,-6.2%,x
CN(C(=O)c1cc2n(n1)C(C(F)(F)F)CC(c1ccco1)N2)c1ccccc1 (centres undefined),9.7%,-4.0%,0.8%,-0.7%,10.1%,1.0%,-1.9%,4.0%
CC1(C)CC(=O)C=C(Nc2ccc(F)cc2F)C1,-3.9%,10.6%,4.2%,25.3%,-11.5%,14.1%,6.6%,-10.8%
CC1CCN(C(=S)NC(=O)c2cccs2)CC1,1.4%[46.1 µM],x,x,6.3%,3.0%[46.1 µM],10.2%,5.2%,x
CN(C)CCN(C(=O)c1ccc(N2C(=O)CCC2=O)cc1)c1nc2cc3c(cc2s1)OCO3,-0.2%,x,x,-11.4%,2.2%[46.1 µM],-0.4%,-7.7%,x
Cc1ccc(N2CN(Cc3cccnc3)CNC2=S)cc1,10.3%,9.8%,0.1%,22.8%,21.7%,-20.6%,-20.4%,-0.1%
Cc1ccc(OCC(=O)Nc2ccc(C(=O)O)cc2NC(=O)COc2ccc(C)c(C)c2)cc1C,-29.3%[46.1 µM],1.3%,x,2.4%,5.8%[46.1 µM],1.0%,-19.1%,x
CC(=O)N1c2ccc(S(=O)(=O)N3CCCC(C(=O)N4CCCCC4)C3)cc2CC1C (centres undefined),x,-17.2%,x,-4.5%,x,4.3%,-26.3%,x
O=C(NCCCN1CCN(c2ccc(F)cc2)CC1)C1CCCN(c2ncnc3c2nc2n3CCCCC2)C1 (centres undefined),u,0.3%,x,u,u,1.3%,u,x
Cc1ccc(C(=O)N/C(=C/c2cccs2)C(=O)NCCc2c[nH]c3ccccc23)cc1,-1.0%,u,-4.9%,x,u,3.8%,-22.4%,11.2%
CSc1ccc(CCNS(=O)(=O)c2cc(-c3cc(C)no3)ccc2C)cc1,u,x,-4.4%,x,x,x,25.6%,-5.6%
Cc1nnc(NC(=O)CSc2nnc(CNC(=O)c3ccc(F)cc3)o2)s1,-1.6%,-2.1%,x,-1.3%,u,-1.7%,-19.6%,x
CCn1c(SCC(=O)Nc2nccs2)nnc1-c1cc2cccc(OC)c2o1,-14.6%,-6.6%,0.8%,16.7%,-11.8%,-0.3%,-0.2%,u
Cn1cc(C(=O)N2CCN(c3ccccn3)CC2)c(=O)c2cc(S(=O)(=O)N3CCOCC3)ccc21,0.3%,1.9%,-1.5%,4.5%,-1.5%,-2.2%,26.4%,-4.3%
# The list continues:
SMILES,LASV entry inh,NS1 function inh,Cruzain Triton,RE007 growth inh,Marburg entry inh,SARS PLP yeast,StopGo reporter,Cruzain noTriton
Cc1ccc(C(=O)NCN2CCN(c3ccccc3)CC2)cc1,-0.6%,x,x,5.8%,9.7%,-3.8%,-14.5%,x
COCCCNC(=O)c1cc2cc(Br)ccc2oc1=O,3.2%,3.9%,x,-1.2%,1.9%[46.1 µM],-1.8%,26.7%,x
CCOC(=O)C(O)(c1ccc(N(CC)S(=O)(=O)c2ccccc2)cc1)C(F)(F)F (centres undefined),u,-10.7%,0.5%,2.9%,-16.9%,-9.0%,-1.1%,3.7%
O=C(NC1CCCCC1)C(c1ccco1)N(C(=O)c1csnn1)c1ccccc1 (centres undefined),-6.4%[46.1 µM],24.8%,x,4.3%,4.3%[46.1 µM],1.9%,15.0%,x
CN(C)c1ccc(/C=C2\NC(=S)N(Cc3ccccc3)C2=O)cc1,u,10.5%,-9.0%,-9.8%,-6.9%,-27.3%,2.4%,u
CC1=CC(C)(C)N(C(=O)c2ccc(F)cc2)c2cc3c(cc21)OCO3,-26.3%,-68.0%,-8.5%,3.5%,-10.2%,-32.2%,0.0%,-25.0%
O=C(Nc1nnc(COc2ccc(F)cc2)s1)Nc1ccccc1F,-8.3%,-1.8%,x,-1.1%,-1.4%[46.1 µM],-0.1%,-3.0%,x
O=S1(=O)c2cccc3cccc(c23)N1CCBr,7.6%,-6.5%,x,-18.5%,u,-15.9%,-18.4%,x
C=CCn1c(N)c(C(=O)NCCC2=CCCCC2)sc1=S,47.8%[14.3 µM],-65.3%,-10.5%,-8.3%,u,0.2%,53.1%[activator],-6.8%
CC(C)CN1C(=O)c2ccc(NC(=O)c3cccs3)cc2C1=O,32.9%[14.3 µM],-82.1%,-14.8%,-5.1%,u,-0.3%,10.9%,0.5%
COCCNC(=O)c1cc(-c2cccc(OC)c2)on1,33.7%[14.3 µM],-6.4%,6.3%,10.2%,30.5%,0.6%,39.6%[activator],6.5%
CC(Nc1ccc(-c2nc(-c3cccnc3)no2)cc1[N+](=O)[O-])c1ccccc1 (centres undefined),6.7%[46.1 µM],x,-3.5%,x,-0.8%[46.1 µM],x,-20.6%,3.2%
COc1ccc(/C(O)=C/c2nc3ccccc3n(-c3ccccc3)c2=O)cc1,9.5%,4.6%,-5.1%,-0.8%,u,-3.9%,10.6%,u
CCN(c1cccc(C)c1)S(=O)(=O)c1ccc(-n2cccn2)cc1,-9.0%[46.1 µM],-33.8%,-9.6%,-12.4%,x,-2.6%,0.0%&0.0%,7.8%
COc1ccc(C)cc1NC(=O)n1ncc2cc(Cl)ccc21,x,-3.4%,x,-7.8%,x,0.2%,-5.5%,x
O=C(O)CCc1ccc(-c2ccc(Cl)cc2)n1CC(=O)O,-1.3%,u,1.9%,-1.6%,-5.1%,-6.4%,x,-7.6%
CSc1nc2ccsc2c(=O)n1-c1ccccn1,3.2%[46.1 µM],11.0%,x,5.8%,8.7%[46.1 µM],4.0%,-7.0%,x
COc1cc(C(=O)Nc2ccc3c(c2)OCCO3)ccc1OC(F)F,-15.7%,-19.2%,-4.6%,3.5%,u,-1.6%,-12.3%,-5.5%
Cc1cc(C)n(-c2ccc(C(=O)C(C#N)c3nc4ccccc4n3C)cc2)n1 (centres undefined),0.5%,-0.5%,-16.2%,-17.6%,28.1%,4.0%,x,1.7%
CCOc1ccc(NC(=S)NCCCc2ccccc2)cc1,-4.9%,-33.2%,x,13.9%,2.1%[46.1 µM],-2.8%,34.4%[activator],x
O=CNC1c2ccccc2CCc2ccccc21,10.0%[46.1 µM],x,x,-20.9%,x,x,-29.3%,x
COc1ccc(S(=O)(=O)N2CCCC2)c(C)c1C,-13.6%,-22.0%,2.3%,-9.5%,-16.8%,-5.1%,3.6%,5.4%
COc1ccc(N2CCN(c3oc(/C=C/c4ccc(F)cc4)nc3C#N)CC2)cc1,-2.0%[46.1 µM],x,0.7%,x,8.4%[46.1 µM],x,-8.0%,-1.4%
COc1nc(NCC(C)C)nc(Oc2ccc(OCc3ccccc3)nn2)n1,12.7%,-15.8%,8.5%,1.4%,4.2%[46.1 µM],10.0%,-10.5%,15.3%
COc1ccc(/C=C/C(=O)N2CCCc3ccccc32)c(OC)c1,u,-25.8%,x,-25.0%,u,-61.6%,-19.5%,x
# Other results
SMILES,LASV entry inh,NS1 function inh,Cruzain Triton,RE007 growth inh,Marburg entry inh,SARS PLP yeast,StopGo reporter,Cruzain noTriton
CC1=CC(c2ccc(Cl)cc2)n2nc(N3C(=O)CCC3=O)nc2N1 (centres undefined),1.4%,3.0%,-4.0%,5.5%,18.6%,18.3%,6.2%,-1.5%
Cc1ccc(N2C(=O)N(CC(=O)Nc3cccc(Cl)c3)C(=O)C2C)cc1 (centres undefined),u,x,x,2.8%,2.3%,0.4%,9.0%,x
CC(C)C(=O)c1cc2c(cc1NC(=O)c1cccs1)OCCO2,-18.2%,3.5%,-4.1%,5.9%,-25.8%,0.7%,-2.2%,-0.1%
O=C(NCC1CCCO1)c1ccc2c(c1)N(Cc1ccccc1)C(=O)CS2=O (centres undefined),x,-3.0%,-0.6%,16.6%,x,3.8%,-25.0%,5.4%
CC1CSc2nc3sc4c(c3c(=O)n21)CCCC4 (centres undefined),3.7%,-16.9%,-9.3%,22.4µM*,u,6.2%,6.3%,0.3%
CCCCN(C)CCNS(=O)(=O)c1ccc2c(c1)n(C)c(=O)c(=O)n2C,x,3.0%,4.3%,5.6%,x,-4.2%,-9.6%,0.0%
Cc1ccc(C)c(NC(=O)c2ccc(OCc3c(C)noc3C)cc2)c1,0.1%,x,x,2.6%,-0.3%,-3.3%,-24.1%,x
